# CBX7 AlphaScr – CBX7 chromodomain binding inhibitors, primary screen, biochemical, AlphaScreen; AlphaScreen His6-CBX7 / biotin-H3K27me3 peptide binding; active compounds read low; 66,000 tested, 1.1% active; AID 1224903, 2016; normalised signal (fraction of DMSO) (concentration not given with the values); in the data active = normalised signal below about 0.5;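 also: 100 nL library stock added to about 20 µL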
# Target sequence (O95931 whole entry, looked up): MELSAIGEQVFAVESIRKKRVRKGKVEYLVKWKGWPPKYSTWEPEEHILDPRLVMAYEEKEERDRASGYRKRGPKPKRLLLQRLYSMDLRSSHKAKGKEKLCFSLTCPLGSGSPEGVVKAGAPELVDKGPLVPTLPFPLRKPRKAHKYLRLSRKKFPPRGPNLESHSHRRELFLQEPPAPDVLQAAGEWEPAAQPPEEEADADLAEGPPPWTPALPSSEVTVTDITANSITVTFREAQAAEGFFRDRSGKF
# CBX7 AlphaScr z-score – also measured in CBX7 AlphaScr; calls as there; z-score; measured here: z-score of CBX7 signal; some inactives read as strong as hits; reference of the scale not given here;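 same signal on another scale; lower means less binding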
# Active calls of the source: *.
SMILES,CBX7 AlphaScr,CBX7 AlphaScr z-score
COc1ccc(OC)c(C2C(=O)N(C3CCC(C)CC3)CC(=O)N2CCC2=CCCCC2)c1 (centres undefined),0.91,-2
CN(C(=O)Cn1nc(Cc2cccnc2)c2ccccc2c1=O)c1ccccc1,0.98,-0.77
COc1cccc(CNS(=O)(=O)c2ccc3[nH]c(=O)c(=O)[nH]c3c2)c1,1,0.59
CCOC(=O)c1ccc2nc(NC(=O)c3ccc(C(=O)OC)cc3)sc2c1,1.1,1.8
Cc1ccc(-c2ccccc2)n1-c1ccccc1C(=O)O,1,0.71
Cc1ccc(NC(=O)CCc2nnc3ccc(NCc4cccnc4)nn23)cc1,1.1,0.9
O=C(Nc1ccccc1Cl)C1CCCN(S(=O)(=O)c2cccc3cccnc23)C1 (centres undefined),1,1.4
CC(=O)Nc1ccc(Nc2nnc(-c3ccc(C)c(S(=O)(=O)N4CCOCC4)c3)c3ccccc23)cc1,0.72,-3.2
O=C(CN1C(=O)CSc2ncccc21)NCCCc1ccccc1,1.1,2.9
Cc1csc2ncc(C(=O)Nc3cc(F)ccc3F)c(=O)n12,1,-0.095
COc1ccc(C2(CNC(=O)c3ccccc3)CCOCC2)cc1,1.1,2.2
COc1ccc(-c2nc3nc(C)cc(C)n3c2Nc2cccc(C)c2)cc1,1.2,2.1
CCN1CCN(c2cc(C)c3cc(NC(=O)Cc4cccnc4)ccc3n2)CC1,1,0.34
NC(=O)C1CCN(C(=O)CCn2c(=O)[nH]c3ccccc3c2=O)CC1,1.1,0.42
CCN(C(=O)Cn1nc(Cc2ccncc2)c2ccccc2c1=O)c1ccccc1C,1,-0.015
CCN1CCN(C(c2cccs2)C(C)NC(=O)c2ccc(OC)cc2)CC1 (centres undefined),1.2,2.2
c1csc(-c2nc3cnccn3c2NC2CCCC2)c1,1.2,2.2
COc1ccc(Nc2nc(N3CCN(CCO)CC3)nc3ccccc23)c(OC)c1,1,0.53
Cc1cccc(OCc2nnc(SCC(=O)Nc3ccc(C)cc3C)o2)c1,1.2,1.8
CCOc1ccc(-n2ccnc2SCC(=O)Nc2ccc(Br)cc2)cc1,1,0.25
CCOc1cc2c(cc1OCC)C1C(C(=O)NCCN3CCOCC3)c3ccccc3C(=O)N1CC2 (centres undefined),1.1,0.45
Cc1nc2c(-c3ccc(F)cc3)c(C)nn2c(C)c1CCC(=O)NCc1ccc(F)cc1,0.97,-0.77
CCOC(CNC(=O)c1ccc2c(c1)N=C(CC)c1cc(Cl)ccc1S2)OCC,0.98,-0.32
O=C(NCCc1ccccc1)c1ccc2nc(N3CCOCC3)sc2c1,1,0.97
COC(CNC(=O)c1ccc2c(c1)ncn2-c1ccc(OCc2ccccc2)cc1)OC,0.95,-0.6
COc1ccccc1Nc1cc(C)nc2c(C)cccc12,1.1,0.77
CCOC(=O)c1sc2nc(C)cc(COC)c2c1N,1.1,1.3
CC1CC(C)CN(S(=O)(=O)c2ccc(C(=O)Nc3ccccc3-c3nc4ccccc4s3)cc2)C1 (centres undefined),1.2,3.9
CCOC(=O)c1c(-c2ccc(OC)cc2)csc1NC(=O)CN1CCOCC1,0.93,-1.9
CCOC(=O)c1cc(-c2nnc(-c3ccccc3OC)o2)c(C)nc1C,0.89,-1.2
Cc1cc(N2CC(C)CC(C)C2)nc2ccc(NC(=O)CCC(=O)NC3CCCCC3)cc12 (centres undefined),1,0.19
O=C(CC1Oc2ccccc2NC1=O)NCCc1ccccc1 (centres undefined),0.99,-0.57
Nc1ccc2nc(SCC(=O)Nc3ccccc3F)sc2c1,0.8,-2.8
O=C(NC1CCCCCC1)C1c2ccccc2C(=O)N1Cc1cccnc1 (centres undefined),1,0.16
O=C(c1ccc2c(c1)N(Cc1c(F)cccc1Cl)C(=O)c1ccccc1S2)N1CCOCC1,1,0.13
Cc1ccc(NC(=O)C2=CCN(S(=O)(=O)c3ccccc3)CC2)nc1,0.93,-2

# A second format for part of the listing above.
CCOC(=O)c1sc2nc(C)cc(COC)c2c1N
  CBX7 AlphaScr = 1.1 | CBX7 AlphaScr z-score = 1.3

CCOC(=O)c1c(-c2ccc(OC)cc2)csc1NC(=O)CN1CCOCC1
  CBX7 AlphaScr = 0.93 | CBX7 AlphaScr z-score = -1.9

CCOC(=O)c1cc(-c2nnc(-c3ccccc3OC)o2)c(C)nc1C
  CBX7 AlphaScr = 0.89 | CBX7 AlphaScr z-score = -1.2

O=C(CC1Oc2ccccc2NC1=O)NCCc1ccccc1 (centres undefined)
  CBX7 AlphaScr = 0.99 | CBX7 AlphaScr z-score = -0.57

# (further entries)
SMILES,CBX7 AlphaScr,CBX7 AlphaScr z-score
Cc1sc(NC(=O)c2ccc(S(=O)(=O)N3CCCC3)cc2)nc1-c1ccccc1,0.96,-1.7
Cc1ccccc1-c1nc(CN2CCC(C(=O)NC3CCN(Cc4ccccc4)CC3)CC2)c(C)o1,1.2,1
CN(C)c1ccc(NC(=O)CN2C(=O)c3ccccc3Sc3ccc(C(=O)N4CCCC4)cc32)cc1,0.85,-4.1
O=C(NCc1ccc(Cl)cc1)c1ccc(Cn2c(=O)[nH]c3ccccc3c2=O)cc1,0.85,-1.8
COc1ccc(N2CCN(C(c3cccs3)C(C)NC(=O)C(=O)NCc3cccnc3)CC2)cc1 (centres undefined),0.85,-4.9
Cc1c(C(=O)NC2CCC(C)CC2)oc2ccc(S(=O)(=O)N3CCCCCC3)cc12 (centres undefined),0.92,-0.79
CN(C1CCCCC1)S(=O)(=O)c1ccc(C(=O)Nc2nnc(-c3cccs3)o2)cc1,0.92,-1.7
O=C(C1CCC1)N1CCc2cc(S(=O)(=O)NCCCN3CCOCC3)ccc21,0.96,-1.2
Cc1ccc(C)c(NC(=O)CSc2nccn2-c2cccc(Cl)c2)c1,0.93,-1.3
O=C(c1cc(-c2ccc(O)cc2)on1)N1CCN(c2ccc(F)cc2)CC1,0.96,-1.7
CC(=O)N1CCc2cc(Br)cc(S(=O)(=O)NCCc3cccc(C)c3)c21,1.1,1.7
Cc1sc2ncn(CC(=O)NCc3ccccn3)c(=O)c2c1C,1,0.3
COc1ccc(-n2nc(C(=O)NCc3ccccc3OC)c3ccccc3c2=O)c(OC)c1,0.98,-0.45
Cc1ccc(CCNC(=O)C2CCCN(c3nnc(-n4cccc4)s3)C2)cc1 (centres undefined),1,0.85
CCN(CC)CCNC(=O)CCn1nc(-c2ccc(C)cc2)ccc1=O,1.1,2.6
CC(=O)C1=C(O)C(=O)N(CCCn2ccnc2)C1c1ccccc1 (centres undefined),1,0.52
O=C(CNC(=O)c1cc2ccccc2o1)Nc1cccc(Cl)c1,1.1,2
Clc1ccc(Cl)c(-c2ccc(-c3csc(Nc4ccccn4)n3)o2)c1,0.81,-4.8
CCOC(=O)CNC(=O)c1nn(-c2ccccc2OC)c(=O)c2ccccc12,1.2,3.4
O=C(c1cc2n(n1)C(C(F)(F)F)CC(c1ccc(Br)cc1)N2)N1CCN(C(c2ccccc2)c2ccccc2)CC1 (centres undefined),0.88,-2.2
O=C(COc1ccc(Br)cc1)Nc1ccc(-c2nc3ncccc3o2)cc1,1,0.031
O=C(CSc1nccn1-c1ccccc1)NCc1ccc2c(c1)OCO2,1,0.076
COc1cc(-c2nc3sc4c(c3c(=O)[nH]2)CCCC4)ccc1OCCOc1ccc(C)c(C)c1,1.1,1.1
CCc1ccccc1N(CC)C(=O)Cn1nc(Cc2cccnc2)c2ccccc2c1=O,0.92,-0.11
O=C(NCc1cccs1)c1ccc2c(c1)N(Cc1cccc(F)c1)C(=O)c1ccccc1S2,0.97,-0.7
O=C(Cn1cnc2scc(-c3ccccc3)c2c1=O)NCCCN1CCOCC1,1,0.11
Cc1ccc(Nc2cc(C)c3ccc(O)cc3n2)cc1C,1,-0.07
CCC(=O)N1c2ccc(S(=O)(=O)N3CCN(c4ccccc4Cl)CC3)cc2CC1C (centres undefined),1.4,1.6
Cc1cc(Oc2ccccc2)nc2ccc(O)cc12,0.98,-0.67
CCOC(=O)c1nc(Nc2cc(Cl)c(OC)cc2OC)c2ccccc2n1,1.1,3.3
CCc1nnc(NS(=O)(=O)c2ccc(NC(=O)CCc3ccccc3)cc2)s1,1.4,3.5
Cc1nn(Cc2ccccc2)c(C)c1NC(=O)c1noc2c1CCCC2,1.1,1.1
O=C(C(Cc1ccccc1)N1C(=O)c2ccccc2C1=O)N1CCOCC1 (centres undefined),0.96,-0.88
CCC1Sc2ccccc2N(CC(=O)NCc2ccccc2OC)C1=O (centres undefined),1,0.21
CCOc1ccc(-c2cc(CCCC(=O)NCc3ccc(C)cc3)no2)cc1,0.88,-0.51
Cc1nc2ncnn2c(C)c1CCC(=O)N1CCN(c2ccccc2F)CC1,1.1,1.6

# Look-ups from above.
# For CBX7 AlphaScr, c1csc(-c2nc3cnccn3c2NC2CCCC2)c1 reads 1.2
# For CBX7 AlphaScr z-score, O=C(CSc1nccn1-c1ccccc1)NCc1ccc2c(c1)OCO2 reads 0.076

# (next part)
SMILES,CBX7 AlphaScr,CBX7 AlphaScr z-score
Cc1ccc2c(c1)-c1c(cnn1CC(=O)Nc1ccc3c(c1)OCCO3)CO2,0.98,-0.49
O=C1CC(N2CCN(Cc3ccc4c(c3)OCO4)CC2)C(=O)N1c1ccccc1Cl (centres undefined),0.84,-2.5
CCc1ccc(NC(=O)Cn2c(SCc3cccc(F)c3)nc3ccncc32)cc1,1.1,0.59
COCCNC(=O)c1nc(-c2cccc(C)c2)oc1C,0.97,-0.21
COc1ccc(C2CC(C(F)(F)F)n3nc(C(=O)NC4CCCCC4)c(Cl)c3N2)cc1OC (centres undefined),1,1.7
CC1CN(C2CC(=O)N(c3ccc(N4C(=O)CC(N5CC(C)OC(C)C5)C4=O)cc3)C2=O)CC(C)O1 (centres undefined),1,1.8
Cc1ccc(Cl)cc1NC(=O)C1=CCN(S(=O)(=O)c2ccc(F)cc2)CC1,1,0.57
CCN(CC)S(=O)(=O)c1ccc2[nH]cc(C(=O)NC3CCCCC3)c(=O)c2c1,1.1,2.2
COCCCNC(=O)CS(=O)(=O)Cc1nc(-c2ccccc2C)oc1C,1,1.2
COc1ccc(C(c2sc3nc(C)nn3c2O)N2CCCCC2)cc1OC (centres undefined),0.99,-0.69
COc1ccc(NC(=O)c2cccnc2Nc2ccc(OC)cc2)cc1,0.51,-1.7
COc1ccc(-c2cc(C(=O)NCc3ccc(C)cc3)c3ccccc3n2)cc1OC,1.2,4.1

# 3 of the compounds above, with tabs.
SMILES	CBX7 AlphaScr	CBX7 AlphaScr z-score
COc1ccc(C(c2sc3nc(C)nn3c2O)N2CCCCC2)cc1OC (centres undefined)	0.99	-0.69
COc1ccc(NC(=O)c2cccnc2Nc2ccc(OC)cc2)cc1	0.51	-1.7
COc1ccc(-c2cc(C(=O)NCc3ccc(C)cc3)c3ccccc3n2)cc1OC	1.2	4.1

# The list continues.
SMILES,CBX7 AlphaScr,CBX7 AlphaScr z-score
NS(=O)(=O)c1ccc(CNC(=O)c2cc(-c3cccs3)nc3ccccc23)cc1,1,0.79
CCN1CCCC1CNC(=O)C1CCN(Cc2nc(-c3cccc(Br)c3)oc2C)CC1 (centres undefined),1,0.029
Cc1cc(N2CCN(c3ccccc3)CC2)n2nc(-c3ccccc3)cc2n1,0.9,-1.6
O=C(NCc1cccnc1)N(c1ccccc1)c1ccccc1,1,0.077
COc1ccc(CCNC(=O)C2(C)CCC(=O)N2Cc2ccc(F)cc2Cl)cc1OC (centres undefined),1.1,2
COc1ccc(C2=NOC(C(=O)N3CCCCCC3)C2)cc1OC (centres undefined),1,0.94
CCN(CC)CCNC(=O)Cc1n[nH]c(=O)c2ccccc12,1,0.035
O=C(Nc1cccnc1Cl)c1ccc2c(c1)N(Cc1ccc(Cl)cc1)CCS2,1.2,3.1
O=C(CN1C(=O)COc2ccc(S(=O)(=O)N3CCCCCC3)cc21)N1CCOCC1,1.1,0.15
COc1ccccc1NC(=O)CCc1c(C)nc2nc(C)nn2c1C,1.1,0.22
O=C(NCCc1ccc(Cl)cc1)C1CCN(c2nc3ccccc3o2)CC1,1.1,0.098
CCOC(=O)c1cnc2ccc(OC)cc2c1NCc1cccnc1,1.1,0.27
Fc1cccc(Cl)c1Cc1nc(-c2cccc(C(F)(F)F)c2)no1,1.2,3.8
Cc1ccc(C)c(-c2csc(Nc3ccc4c(c3)OCO4)n2)c1,0.35*,-7.2*
CCOc1ccccc1NC(=O)c1c(NC(=O)c2cccs2)sc2c1CCCC2,1.1,2.6
Cc1c(C(=O)NCc2ccc3c(c2)OCO3)oc2ccc(S(=O)(=O)N3CCCCC3)cc12,0.91,-0.1
O=C1c2ccccc2C(Nc2ccc(S(=O)(=O)N3CCCCCC3)cc2)N1c1cccnc1 (centres undefined),0.92,-2.5
Cc1nc(Nc2nc3ccccc3o2)nc2c1C(=O)CC(C)(C)C2,0.99,-0.23
O=C(NCc1cccnc1)c1ccc2c(c1)N(Cc1ccccc1F)C(=O)c1ccccc1S2=O (centres undefined),0.89,-2.9
Cc1ccc(CNC(=O)CN2CCN(Cc3ccccc3Cl)C2=O)cc1,1,0.55
CCn1cc(CNC(=O)c2cc(-c3ccccc3)nc3ccc(Br)cc23)c(C)n1,1.1,1.1
CCOC(=O)c1sc2nc(Cc3ccccc3)nc(N3CCN(c4ccccc4F)CC3)c2c1C,1.2,5.6
O=C1CC(c2ccccc2)CC2=C1C(c1ccc(Cl)cc1)Nc1ccc(C(=O)c3ccccc3)cc1N2 (centres undefined),0.86,-0.57
Cc1cc(C)c(S(=O)(=O)NCc2ccc(C(=O)NCCc3ccccc3)cc2)c(C)c1,0.9,-0.44
COc1ccc(CCNC(=O)CN2C(=O)COc3ccc(Cl)cc32)cc1OC,1.4,0.83
Cc1ccc2cc(CCNC(=O)c3ccc(Cl)cc3Cl)c(=O)[nH]c2c1C,0.96,-0.9
Cc1cc(N2CC(C)CC(C)C2)nc2ccc(NC(=O)CCC(=O)N3CCOCC3)cc12 (centres undefined),1.1,1.3

# High-throughput results deposited in PubChem BioAssay by several laboratories.

# These rows are one share of the data; the hit share may differ from the screen's.
